ClpP mod: qHTS Assay for Activators of ClpP. ATP-dependent Clp protease proteolytic subunit (Bacillus subtilis (strain 168)), P80244. purified B. subtilis ClpP, FRET peptide cleavage, 20 min. Potency, µM (titrated, usually from 57.5 µM), for the others: top-dose activity change, negative = active. 340,000 tested, 1.9% active; active = well fitted falling curve with a large enough effect; inconclusive = small, poorly fitted or top-dose-only effect; inactive = no such curve, though single readings can be large or run the other way; also: potency is read from the fitted curve at half-maximal effect; the source files actives as falling curves though it sought activators and does not explain the sign; nearly all actives have a fitted effect of over 65% in size; many hits overshoot -100%
Target sequence (P80244 whole entry, looked up): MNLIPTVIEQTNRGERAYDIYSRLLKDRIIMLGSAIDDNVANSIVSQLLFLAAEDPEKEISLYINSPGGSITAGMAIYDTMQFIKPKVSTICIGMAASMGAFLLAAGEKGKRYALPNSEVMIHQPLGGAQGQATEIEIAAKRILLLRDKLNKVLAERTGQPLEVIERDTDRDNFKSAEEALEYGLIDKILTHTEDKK
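ClpP 10 microg/mL final, pH 8 Tris/KCl buffer with BSA, glycerol, Tween-20; compound pinned in; FRET-FV substrate; RT 20 min; Ex320/Em430; ΔFRET vs ADEP 5.8 microM, DMSO, no enzyme.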
Menin-MLL FL inh: inhibitors of human menin-MLL interaction, wild-type MLL peptide; Fluorescence polarization, fluorescein-MLL peptide displacement from menin; FP activity change, % at 61.4 µM; 290,000 tested, under 10 active; AID 1766; inconclusive = falling polarisation curve, or a change in total fluorescence; inactive = total fluorescence flat and polarisation flat or rising; no compound was filed as active; the % refers to the polarisation; negative = inhibition;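 also: % of control where 0% means no effect; inhibitors lower the polarisation; unlabelled MLL peptide was the positive control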
TRPML1 blocker: blocks the human TRPML1 channel | Q9GZU1 | TRPML1-inducible cells, Ca2+ dye fluorescence, FDSS; stronger effect = lower value; inhibition of EC80 agonist-evoked calcium signal | activity change, negative = inhibition, % (concentration not given with the values) | 390,000 tested, 0.02% active | AID 624415; in the data active means activity change below about -50%; inconclusive means about -30% to -50%; inactive means above about -30%;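 also: stimulus is agonist 54-4 at its EC80 concentration; % is scaled to controls: 0 for no effect and ±100 for the full control effect; compound concentration not given in the record; the text of the record puts the active cut at -80%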
Target sequence (Q9GZU1 whole entry, looked up): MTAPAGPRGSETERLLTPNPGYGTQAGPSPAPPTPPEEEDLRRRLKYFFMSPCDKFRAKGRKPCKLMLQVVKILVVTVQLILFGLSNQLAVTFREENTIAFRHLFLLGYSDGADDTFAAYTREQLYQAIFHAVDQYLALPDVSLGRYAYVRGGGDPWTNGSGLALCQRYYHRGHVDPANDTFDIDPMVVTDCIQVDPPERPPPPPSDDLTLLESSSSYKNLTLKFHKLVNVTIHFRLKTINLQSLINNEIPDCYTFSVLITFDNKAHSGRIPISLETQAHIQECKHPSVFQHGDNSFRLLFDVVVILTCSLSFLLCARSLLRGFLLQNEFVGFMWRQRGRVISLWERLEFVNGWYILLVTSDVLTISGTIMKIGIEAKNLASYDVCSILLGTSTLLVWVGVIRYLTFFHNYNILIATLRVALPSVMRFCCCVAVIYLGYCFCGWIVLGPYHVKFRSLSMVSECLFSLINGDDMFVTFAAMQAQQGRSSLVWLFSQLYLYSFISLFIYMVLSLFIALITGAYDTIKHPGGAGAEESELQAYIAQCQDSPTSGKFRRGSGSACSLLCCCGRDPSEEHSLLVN
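Tet-induced TRPML1-DL cells loaded with Ca8 no-wash calcium dye were read kinetically on FDSS. Compound addition was followed by EC80 agonist 54-4 (4 uM final); inhibition was read over 110 s.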
TRPML1 ag: human mucolipin-1 channel agonism; 410,000 tested, 0.12% active; activation, % (concentration not given with the values); Q9GZU1; TRPML1-expressing cells, Ca2+ dye fluorescence, FDSS; host cell line not named in the record; reference of the full effect not given here; in the data active = activation above about 50%; inconclusive = about 30% to 50%; inactive = below about 30%; also: 0% is about no effect; the text of the record puts the active cut at 80%
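Tetracycline-induced TRPML1-DL cells are seeded and incubated overnight before loading with a no-wash Ca2+ dye and quencher. Agonist activity is taken from the 110 s fluorescence read following compound pin-transfer on an FDSS, before EC80 54-4 challenge.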
gsp antagonist: antagonizes gsp, the McCune-Albright syndrome mutation. AID 624288. Potency, µM (titrated, usually from 76.9 µM), for inactives: at the top dose activity change, negative = inhibition, most hits filed as inhibitors. gsp-mutant cells, cAMP HTRF, 30 min; control for the full effect not named in the record. 340,000 tested, 0.4% active; active = falling curve of any shape with a large fitted effect; inconclusive = falling curve, mostly with a smaller effect; inactive = flat or rising curve; cell line not stated here;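 also: intracellular cAMP measured with PDE inhibitor Ro 20-1724 present during compound exposure; potency is read from the fitted curve at half-maximal effect; % is scaled to controls: 0 for no effect and ±100 for the full control effect; nearly all actives have a fitted effect of over 65% in size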
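HTRF cAMP read-out (cAMP-d2 plus anti-cAMP antibody-K in lysis buffer, 30 min RT). Before lysis, cells are exposed to compounds with […] for 30 min at 37C in DPBS containing Ca/Mg, BSA and Tween 20.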
gsp ag: gsp mutant agonism; gsp mutant cells, cAMP HTRF, 30 min; control for the full effect not named in the record; Potency, µM (doses to about 76.9 µM), for the others: top-dose activation (cAMP increase), actives largely listed as activators; 340,000 tested, 0.13% active; AID 624287; active = well fitted activation curve with a large enough effect; inconclusive = small, poorly fitted or top-dose-only effect, or another doubt; inactive = no such curve, though single readings can be large or run the other way; cell line not stated here;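 also: phosphodiesterase inhibitor Ro 20-1724 added with compounds to block cAMP breakdown; potency is read from the fitted curve at half-maximal effect; nearly all actives have a fitted effect of over 60% in size; about a fifth of the inactives were tested at one dose only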
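Cells in DMEM/10% FBS with G418 were pretreated with compounds in DMSO plus […] (300 uM stock) for 30 min at 37C. cAMP was measured by HTRF (cAMP-d2 plus anti-cAMP antibody-K) after 30 min at room temperature.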
Active calls of the source: *; ? = inconclusive; . = not tested or not shown; & = joins results of further samples; [ ] = dose if it differs, or a comment.

SMILES | ClpP mod | Menin-MLL FL inh | TRPML1 blocker | TRPML1 ag | gsp antagonist | gsp ag
COc1cccc(C2=CC(=O)CCC2)c1OC | -2.9% | . | 8.9 | -0.9 | 9.1% | 3.0%
CN1C(=O)c2ccc(NC(=O)c3ccc(Cl)cc3Cl)cc2C1=O | 3.5% | . | -1.4 | -0.7 | 0.6% | 2.5%
O=C(O)CC/C(=N/NC(=O)c1ccc(-c2ccccc2)cc1)c1ccccc1 | -5.5% | 2.5 | -13.1 | 0.2 | -8.1% | 8.6%[15.4 µM]
O=C(CN1C(=O)CCSc2ccc(S(=O)(=O)N3CCCC3)cc21)Nc1cccc(F)c1 | 0.8% | . | 4.3 | -0.8 | . | .
CC(=O)Nc1ccccc1NC(=O)c1ccccc1-c1ccccc1 | -2.5% | -1.3 | -22.1 | -0.1 | -1.5% | 6.0%[15.4 µM]
CNC(=O)C12CC3CC(CC(Cl)(C3)C1)C2 | -1.2% | 10.4 | 8.5 | 0.8 | 10.1% | -3.4%
COc1cccc(/C=C/C(=O)OCC(=O)N2c3ccccc3NC(=O)C2(C)C)c1 | -22.3% | -3.1 | 16.1 | 3.2 | -4.9% | 20.9%
C#Cc1ccc(CN2CCC(C(=O)Nc3ccc(Oc4ccccc4)nc3)CC2)cc1 | 0.3% | . | 42.8 | 0.8 | 7.2% | 20.7%
CN(C)c1ccc(-n2cccc2)cc1 | . | -0.9 | 15.9 | 3.1 | -2.8% | 17.8%[15.4 µM]
CC(NC(=O)C1=CC=CN2CCS(=O)(=O)N=C12)c1ccc(Cl)cc1Cl (configuration not stated) | 25.1µM* | . | 9.1 | 0.4 | -4.9% | -0.2%
Cc1ccccc1C(=O)NNC(=O)CCC(=O)Nc1cccc(Cl)c1C | -1.4% | 1.4 | -18.3 | -0.7 | 9.6% | 8.2%
COc1cc(OC)cc(-n2c3nc4ccccc4nc3c3c(=O)n(CC4CCCO4)cnc32)c1 (configuration not stated) | -7.2% | 1.5 | 32.2 | -0.2 | -7.0% | -6.3%
O=C(/C=C/c1ccc([N+](=O)[O-])cc1)NCc1cccnc1 | 2.1% | 0.1 | -3.7 | 0.0 | 0.8% | -1.8%
Cc1ccccc1-n1nc(C)c2cc(C(=O)N3CCN(S(=O)(=O)c4ccc(F)cc4)CC3)sc21 | -1.8% | -2.3 | -2.0 | 0.1 | -12.1% | -1.9%
CCOc1ccccc1-n1c(SCC(=O)N2CCCC2)nnc1-c1ccc(O)cc1 | -0.4% | 2.9 | 4.3 | 0.4 | -4.3% | 7.5%
CC(=O)NC(CC(=O)N(C)Cc1c(F)cccc1Cl)c1ccccc1 (configuration not stated) | . | -0.5 | 0.2 | -0.1 | 4.8% | 18.9%
COCCNC(=O)C(c1ccc(C)cc1)N(C(=O)CCC(=O)Nc1ccccn1)c1ccc(F)cc1 (configuration not stated) | . | 3.0 | -0.6 | -0.3 | ? | 7.4%[15.4 µM]
O=C(Cn1cnc2ccccc2c1=O)N1CCc2ccccc2C1 | . | 1.0 | 19.2 | 0.5 | 1.8% | -58.8%[inhibitor]
CCc1ccccc1NC(=O)[C@@H]1CCC(=O)N1C1OC(=O)c2ccccc21 (some centres not stated) | 0.5% | -4.1 | . | . | 6.9% | .
Cc1cc(NC(=O)Nc2ccc3c(ccn3C)c2)sn1 | -1.8% | 1.1&8.2 | 10.6 | 1.9 | -2.3% | .
CCCCNC(=O)c1cc2c(=O)n3cccc(C)c3nc2n(Cc2ccncc2)c1=N | 3.55µM* | 2.8 | -4.3 | 6.1 | 8.6% | 26.6%
COc1ccc(/C=N/NC(=O)c2cccnc2)cc1CN1CCCc2ccccc21 | . | 3.5 | 2.3 | 0.6 | -14.5% | -3.3%[15.4 µM]
CCN(C(=O)COC(=O)c1n[nH]c2ccccc12)C1CCS(=O)(=O)C1 (configuration not stated) | ? | 4.4 | 3.3 | -0.5 | 3.2% | -17.0%
CCn1c(Cc2ccccc2)nnc1SCC(=O)Nc1cc(C)on1 | 0.2% | 0.4 | -1.0 | 0.1 | 0.7% | 26.0%
COc1ccc(NC(=O)C2=C(C)NC(=O)NC2c2cccs2)c(OC)c1 (configuration not stated) | -0.5% | 8.5 | -7.4 | 0.0 | 12.4% | -23.3%
C=C(C)CN1CCN(S(=O)(=O)c2ccc(C)c(N(C)S(=O)(=O)c3ccc(C)cc3)c2C)CC1 | 1.8% | -2.5 | 13.3 | 2.8 | -5.4% | -24.9%
Cc1cc(C)c2oc(C(=O)Nc3c(C(=O)c4ccc(F)cc4)oc4ccccc34)cc(=O)c2c1 | -0.2% | . | -13.0 | 1.7 | . | .
Cc1cc(S(=O)(=O)NCc2ccco2)c(C)s1 | -1.7% | 0.8 | 10.4 | -0.2 | -4.8% | -33.9%
Nc1nc(-c2cccnc2)nn1S(=O)(=O)c1ccccc1 | 35.5µM* | . | 31.6 | -0.1 | -0.3% | ?
COc1ccc(NC(=O)CN2CCN(c3ccccc3)CC2)cc1 | . | 0.5 | 6.1 | 0.7 | -9.6% | 17.8%[15.4 µM]
CCC(=O)N1CCc2cc(S(=O)(=O)N3CCc4ccccc4C3)ccc21 | -0.1% | 0.6 | -7.3 | -0.4 | 5.6% | -45.9%[inhibitor]
Cc1ccc(NC(=O)C(C)Sc2nc(-c3ccccc3)cc(=O)[nH]2)cc1 (configuration not stated) | -2.5% | -1.6 | 16.1 | -0.8 | 0.6% | 1.1%
COc1ccc(CCNC(=O)C2=C(C)C(=O)OC23CCCCC3)c(OC)c1 | -4.2% | . | 5.9 | 0.0 | . | .
Cc1nnc(C)c2c(C)n(-c3ccc(Cl)c(N)c3)c(C)c12 | . | 6.4 | 6.7 | 2.1 | -2.3% | 20.9%
CCOc1ccccc1OCCCC(=O)N1CCN(S(=O)(=O)c2ccc(Cl)cc2)CC1 | -0.6% | . | 8.1 | 1.3 | -26.3% | -11.5%
COc1ccccc1-c1c(-c2ccc(O)cc2O)n[nH]c1C(F)(F)F | -7.2% | -0.7 | . | . | -6.5% | ?
CC(C)(C)NC(=O)Cn1nnc(-c2ccc(OCc3c(F)cccc3Cl)cc2)n1 | . | 0.7 | -7.7 | 1.6 | -25.5% | -44.4%[inhibitor]
O=C1C(Cc2ccccc2)Nc2ncnc(N3CCOCC3)c2N1Cc1ccc(Cl)cc1 (configuration not stated) | -2.6%&-3.1% | . | 2.0&-9.3 | 0.1&2.2 | -1.4% | 28.4%
COc1ccccc1CCNC(=O)Cc1c(C)c2c(cc(C)c3c(C)coc32)oc1=O | -15.3% | . | -11.9 | 0.7 | . | .
COc1ccc(C2CC2/C(=N/OC(=O)c2cccs2)c2ccccc2)cc1 (configuration not stated) | -1.6% | -1.4 | -7.2 | 0.1 | -15.5% | -9.3%
O=C(CSc1oc(-c2ccc(F)cc2)nc1S(=O)(=O)c1ccccc1)NCC1CCCO1 (configuration not stated) | -5.2% | -2.2 | 3.3 | 0.0 | -9.8% | 0.8%
Cc1c(N2C(=O)/C(=C3\C(=O)N(CC(=O)O)c4ccccc43)SC2=S)c(=O)n(-c2ccccc2)n1C | -1.7% | 4.8 | -1.6 | -0.8 | 2.5% | -1.3%
CC1=C(C(=O)Nc2ccc(C(=O)NCCCN3CCCCC3C)cc2)SCCO1 (configuration not stated) | -2.2% | . | -2.6 | 0.3 | . | 8.0%
COc1ccc(-c2noc(-c3ccc(N4CCN(c5ccccc5)CC4)c([N+](=O)[O-])c3)n2)cc1 | -0.1% | . | 29.3 | -0.1 | . | .
CCc1cccc(C)c1NC(=O)CN1C(=O)C2(SCC(=O)N2c2cc(C)cc(C)c2)c2ccccc21 (configuration not stated) | 0.8% | . | -4.8 | 1.6 | . | .
O=C(Cc1ccc(Cl)c(Cl)c1)Nc1ccccc1N1CCOCC1 | . | -0.9 | 0.4 | 0.3 | -4.7% | 2.1%[15.4 µM]
CCOc1ccc(-c2nnc(SCC(=O)NCCc3ccccc3)nc2-c2ccc(OCC)cc2)cc1 | -2.3% | . | 3.9 | -0.4 | . | .
Cc1ccc(C(C#N)N2CCOCC2)cc1 (configuration not stated) | 1.2% | -1.5 | 11.6 | 0.2 | 12.9% | ?
CCOC(=O)c1noc2nc(C)n(Cc3ccc([N+](=O)[O-])cc3)c(=O)c12 | 1.9% | . | 22.4 | 1.9 | . | .
COc1ccccc1CNC(=O)CN1C(=O)CCc2cc(S(=O)(=O)N3CCCCC3)ccc21 | 0.2% | . | 11.3 | -0.5 | . | .
COc1ccc(C2=NN(CCC(=O)NCC3CCCO3)C(=O)CC2)cc1 (configuration not stated) | 0.2% | -1.7 | 5.3 | -1.2 | 3.6% | 3.6%
CN(C(=O)C1Cc2c(-c3ccc(Cl)cc3)ccnc2O1)c1ccccc1 (configuration not stated) | -9.1% | . | 18.4 | -0.3 | . | .
C[C@H](CO)N1C[C@H](C)[C@@H](CN(C)C(=O)Nc2ccccc2F)Oc2cc(Br)ccc2S1(=O)=O | 1.1% | . | 6.8 | -0.5 | . | -4.1%
CCOc1ccc(S(=O)(=O)N2CCN(C(=O)c3sccc3C)CC2)cc1 | -1.1% | 0.6 | -11.6 | -1.2 | -0.5% | -27.1%
CCN1C(=O)c2cccc3c(S(=O)(=O)NCc4ccccc4)ccc1c23 | -20.8% | . | -16.4 | 1.5 | -5.1% | -52.4%[inhibitor]
Cc1cccc(NC(=O)CSCc2cc(=O)n3c(C)csc3n2)c1C | -3.4% | -8.3 | 9.5 | -1.7 | 7.1% | ?
O=[n+]1cc(-c2ccccc2)n([O-])c2c1CCC2 | -0.1% | 2.9 | -5.9 | -0.4 | 7.7% | -21.8%
NC(=O)c1ccc[n+](CC(=O)c2ccc(Cl)c(Cl)c2)c1 | 0.6% | -2.3 | -1.4 | 1.8 | -0.5% | 20.5%
CCOc1cc([C@@H]2C[C@H]3CN(c4ccccc4)C(=O)[C@]34CCCN24)ccc1OC | . | 7.3 | 2.3 | 0.3 | -2.7% | -1.7%[15.4 µM]
Cc1ccc2[nH]cc(CCNC(=O)C3CCCCC3)c2c1 | -3.2% | 0.0 | 4.0 | 0.4 | -5.3% | -29.0%

Going on with the list:
SMILES | ClpP mod | Menin-MLL FL inh | TRPML1 blocker | TRPML1 ag | gsp antagonist | gsp ag
Cn1c(-c2ccc(=O)[nH]c2)nc2ccccc21 | . | 8.5 | -9.0 | -0.2 | 9.1% | 14.6%[15.4 µM]
COC(=O)c1c(NC(=O)c2cc(OC)c(OC)c(OC)c2Br)sc2c1CCC(C)C2 (configuration not stated) | -9.0% | . | -18.2 | -0.3 | . | .
O=C(COC(=O)Cc1ccc(Cl)cc1)NC1CCCC1 | -0.2% | . | 1.1 | -0.1 | 2.8% | -24.3%
CCOc1ccc2oc(C(=O)OCC(=O)N(CC(C)C)c3c(N)n(Cc4ccccc4)c(=O)[nH]c3=O)c(C)c2c1 | 43.0% | . | -5.2 | 0.6 | -4.7% | 9.9%

Compound activity: PubChem BioAssay, National Center for Advancing Translational Sciences (NCATS)
